KCNQ2 block – KCNQ2 potassium channel inhibitors, primary screen, cell-based, CHO-K1, FluxOR thallium flux, B-score (AID 2156); O88943; 20 min; active compounds read low; only compounds with negative scores are shown here; some inactives read as strong as hits; B-score at 10 µM; hit rate 1.1% among 310,000;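 active means fluorescence ratio B-score at most minus 3 library SDs, with starting brightness B-score within 2 library SDs, cut at about -5.5 in these data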
Target sequence (O88943 whole entry, looked up): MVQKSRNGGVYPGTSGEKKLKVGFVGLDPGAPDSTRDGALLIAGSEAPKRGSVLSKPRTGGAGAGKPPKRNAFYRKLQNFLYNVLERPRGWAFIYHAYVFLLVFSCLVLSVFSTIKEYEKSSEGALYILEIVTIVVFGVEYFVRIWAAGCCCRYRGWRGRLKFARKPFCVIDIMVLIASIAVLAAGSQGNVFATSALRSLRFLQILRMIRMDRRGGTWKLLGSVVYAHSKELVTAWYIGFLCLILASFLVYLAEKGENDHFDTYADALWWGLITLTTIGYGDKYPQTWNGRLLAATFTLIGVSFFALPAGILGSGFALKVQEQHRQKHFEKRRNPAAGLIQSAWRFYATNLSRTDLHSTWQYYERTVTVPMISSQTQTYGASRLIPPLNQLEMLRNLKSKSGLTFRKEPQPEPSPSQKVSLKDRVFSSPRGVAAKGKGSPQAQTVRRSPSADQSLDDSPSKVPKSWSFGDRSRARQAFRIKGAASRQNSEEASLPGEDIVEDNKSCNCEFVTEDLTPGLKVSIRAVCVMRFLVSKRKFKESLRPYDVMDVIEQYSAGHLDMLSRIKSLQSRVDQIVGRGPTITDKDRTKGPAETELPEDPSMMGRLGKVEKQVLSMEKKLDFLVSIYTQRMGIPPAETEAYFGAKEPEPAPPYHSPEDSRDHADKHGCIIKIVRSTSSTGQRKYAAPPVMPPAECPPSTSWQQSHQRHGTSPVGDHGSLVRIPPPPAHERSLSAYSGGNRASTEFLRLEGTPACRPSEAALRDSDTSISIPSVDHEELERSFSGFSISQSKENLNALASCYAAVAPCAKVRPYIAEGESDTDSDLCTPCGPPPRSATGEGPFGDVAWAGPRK
KCNQ2 block baseline – recorded beside KCNQ2 block, whose call it bears; B-score; measured here: initial fluorescence intensity artifact check;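 brightness before thallium and not channel activity; 0 = typical well and far values either way flag optical interference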
* hit, by the source's call; i = inactive. The list is partial; rates above refer to the full screens.

SMILES	KCNQ2 block	KCNQ2 block baseline
CC1=C(C(=O)OC(C)C)C(c2ccccc2)NC(=O)N1C (stereo not given)	i	-0.47
O=[N+]([O-])c1cccc(-c2cn3ccccc3n2)c1	i	-0.39
COc1ccc(NC(C)=O)c2nc(C)c(C)nc12	i	-0.08
O=C(CSC1=NS(=O)(=O)c2cc(F)ccc2N1)Nc1cccc(F)c1	i	-0.24
COc1ccc(N2C(=O)CSC(c3ccccc3)C2=O)cc1 (stereo not given)	i	0.34
CCCc1nnc(SCC(=O)NC2CCCC2)n1CCOC	i	-2.1
Cc1ccc(Cc2c(C)nc3nc(SCC(=O)NCCCN4CCCCC4)nn3c2C)cc1	i	-0.55
COC(=O)c1ccc(C(=O)NC(=S)Nc2ccc3nc(SC)sc3c2)cc1	i	-0.01
N#CCCN(Cc1ccccc1)C(=S)Nc1ccccc1	i	1.1
O=C(NCCc1ccccc1)c1ccc2c(c1)N(Cc1ccccc1)CCS2	i	1.4
COc1ccc(S(=O)(=O)NCC(c2cccnc2)N2CCN(C)CC2)cc1C (stereo not given)	i	0.88
COc1ccc(CCN(C)CC(O)COC(c2ccc(F)cc2)c2ccc(F)cc2)cc1OC (stereo not given)	i	-0.46
CC(=O)Nc1ccc2c(c1)OCCOCCOc1cc(NC(C)=O)ccc1OCCO2	i	-0.48
COc1ccc(-c2cnnn2-c2ccc(N)cc2)cc1OC	i	-3.1
Cc1nc(C)c(-c2ccc(SCc3ccc(Cl)cc3)nn2)s1	i	-0.16
COc1cccc(CN(C)C(=O)CSCC(=O)Nc2cc(C)on2)c1OC	i	0.76
Cc1cc(O)c(C(=O)Cc2csc(C)n2)c(O)c1	i	1.8
CC(=O)c1cccc(NC(=O)c2ccc(CN3CCc4ccccc4C3)cc2)c1	i	-2.3
CC1CCCCN1CCCNc1ccc(C(CC(N)=O)NC(=O)Cc2cccc3ccccc23)cc1[N+](=O)[O-] (stereo not given)	i	-0.7
COc1ccc(CNc2oc(-c3cccc4ccccc34)nc2P(=O)(OC)OC)cc1	i	-0.05

In the list so far, these contain two or more sulfur atoms:
SMILES	KCNQ2 block	KCNQ2 block baseline
O=C(CSC1=NS(=O)(=O)c2cc(F)ccc2N1)Nc1cccc(F)c1	i	-0.24
COC(=O)c1ccc(C(=O)NC(=S)Nc2ccc3nc(SC)sc3c2)cc1	i	-0.01
Cc1nc(C)c(-c2ccc(SCc3ccc(Cl)cc3)nn2)s1	i	-0.16

The list goes on.
SMILES	KCNQ2 block	KCNQ2 block baseline
NCCCCCc1nnc(SCc2cccc(Cl)c2)o1	i	0.11
NC(=O)CSc1cn(CCNC(=O)c2cccs2)c2ccccc12	i	2.2
CC(=O)c1sc(C(=O)O)c(-c2ccco2)c1-c1ccco1	i	0.52
CN(C)c1ccc(CNn2cnnc2SCc2ccc(F)cc2)cc1	i	-1.1
Cc1ccc(C)c(N2CCN(C(=O)CNS(=O)(=O)c3cccs3)CC2)c1	i	0.16
O=c1c2ccccc2ncn1Cc1ccc2c(c1)OCO2	i	-0.33
CCOc1ccccc1NC(=O)CCS(=O)(=O)c1ccc(Br)cc1	i	0.1
O=C(NC1CC1)c1sc2ccccc2c1Cl	i	0.31
C=CCNC(=O)c1ccccc1NC(=O)c1ccc(Cl)c(S(=O)(=O)Nc2cccc(C)c2C)c1	i	1.4
O=C(CCS(=O)(=O)c1ccccc1)Nc1nncs1	i	-0.92
CC(C)C(OC(=O)CCCC(=O)Nc1nccs1)C(=O)NC1CCCCC1 (stereo not given)	i	-2.4
Clc1cccc(N=C2NN=C(c3ccc4c(c3)OCCO4)CS2)c1	i	-0.36
O=C(Nc1ccsc1C(=O)N1CCCCCC1)c1ccccc1	i	0.07
Cc1nnc(SCC(=O)NC2CC2)n1-c1ccccc1	i	0.49
CCOC(=O)c1c(-c2ccc(C)cc2)csc1/N=C(\C)C1=C(O)c2ccccc2C1=O	i	-0.3
CCOC(=O)c1c(-c2cccs2)csc1NC(=O)CN1CC(C)OC(C)C1 (stereo not given)	-8.1*	-2.3*
CC(C)CNC(=O)NC(=O)COc1ccc(C=O)cc1	i	-1.2
COc1ccc(CN2CCN(Cc3ccccc3F)CC2)c(OC)c1	i	-0.15
CCn1c(SCC(=O)N/N=C/C=C\c2ccccc2[N+](=O)[O-])nnc1-c1ccccc1	i	-0.02
Cn1cccc1/C=C1\CC(C(C)(C)C)C/C(=C\c2cccn2C)C1=O (stereo not given)	-11*	3.8*
COCc1ccc(CN2CCC(Oc3ccc(C(=O)NCc4ccccn4)cc3)CC2)o1	i	0.26
Cc1csc(CN(C)C(=O)C2CCC(=O)N(Cc3ccc(Cl)cc3)C2)n1 (stereo not given)	i	0.36
COc1ccc(-c2nc(SCc3ccccc3)n(C(=O)c3ccco3)n2)cc1	i	-0.55
O=C(CCNS(=O)(=O)c1ccccc1F)N1CCN(S(=O)(=O)c2cccc(F)c2)CC1	i	-2.6
COc1cc2oc(=O)c3c(c2cc1OCC(=O)c1c(C)n(C)c2ccccc12)CCCC3	i	1.2
CCOC(=O)Cc1csc(NC(=O)COc2ccc3c(c2)CCC3)n1	i	-0.06
COc1ccc(NC2CCCN(C(=O)CCN3CCCC3=O)C2)cc1 (stereo not given)	i	2.7
CCN(CC)S(=O)(=O)c1ccc(N2CCOCC2)c(NC(=O)c2ccccc2F)c1	i	-0.84
O=C(O)c1cccc(N2C(=S)N=C(Nc3ccccc3)C23CCCCC3)c1	i	-1.1
CCc1cc(Br)ccc1N1C(=O)C2CC=CCC2C1=O (stereo not given)	i	0.21
Cc1oc2nc(SCCCC(=O)NCCCO)nc(N)c2c1C	i	-1.1
COC(=O)[C@@]1(Cc2ccc(F)cc2)[C@H]2c3cc(C(=O)N(C)C)n(CCSCCO)c3C[C@H]2CN1C(=O)c1ccccc1	i	0.86
c1ccc(Sc2nc(N3CCCCC3)nc(N3CCCCC3)n2)nc1	i	2.1
Cc1cccc(/C=N/NC(=O)c2cccc([N+](=O)[O-])c2)n1	i	1.6
O=C(Nc1cccc2cccnc12)c1cccc2ccccc12	i	1.9
O=C(Cn1c(=O)c2cccn2c2cccnc21)N1CCN(c2ccccc2F)CC1	i	1.5
COc1ccc(CN(Cc2nc3ccccc3c(=O)[nH]2)C(=O)c2ccco2)cc1	i	-0.41
c1cncc(Nc2c3ccccc3nc3ccccc23)c1	i	0.07
COc1cc(C=O)ccc1Oc1nnnn1-c1ccc(C(N)=O)cc1	i	0.6
O=C(CCc1ccccc1)Nc1cc(Cl)ccc1O	i	-1.7

Single records, from the list above:
`COc1cc2oc(=O)c3c(c2cc1OCC(=O)c1c(C)n(C)c2ccccc12)CCCC3` is listed with KCNQ2 block: i; KCNQ2 block baseline: 1.2
`COc1ccc(NC2CCCN(C(=O)CCN3CCCC3=O)C2)cc1` (stereo not given) is listed with KCNQ2 block: i; KCNQ2 block baseline: 2.7
`c1ccc(Sc2nc(N3CCCCC3)nc(N3CCCCC3)n2)nc1` is listed with KCNQ2 block: i; KCNQ2 block baseline: 2.1

Additional entries:
SMILES	KCNQ2 block	KCNQ2 block baseline
CCc1ccccc1NC(=O)c1cnc2n(c1=O)CCS2	i	0.19
COc1ccc(OCC(=O)N2CCC(n3nccc3NC(=O)C3CC3)CC2)cc1	i	1.5
CCN(CC)CCCN(C)C(=O)Cn1nc(Cc2ccncc2)c2ccccc2c1=O	i	0.23
NC(=O)COC(=O)c1cc(=O)[nH]c2ccc(S(=O)(=O)Nc3ccc(F)cc3)cc12	i	1
CC(/C=C/c1ccc(N(C)C)cc1)=N\N=C(/N)SC1CC(=O)N(c2ccc(C(=O)O)cc2)C1=O (stereo not given)	i	1.3
Cn1cc(CN2CCN(c3ccccc3)CC2)c2ccccc21	i	-0.9
O=C(/C=C/c1cccnc1)c1cccc(O)c1	i	1.3
CCOC(=O)c1c(CN2CCN(C)CC2)n(C)c2cc(Br)c(OC)cc12	i	0.3
CN(Cc1nccn1C)C(=O)CC1C(=O)NCCN1Cc1cccc(Oc2ccccc2)c1 (stereo not given)	i	-1.3
Cc1ccc(N2C(=O)c3ccccc3C2O)nc1 (stereo not given)	i	0.39
COc1ccc(OC)c(Cc2nnc(CCC(=O)N3CCC(N4CCCCC4)CC3)o2)c1	i	-0.07
CCOC(=O)c1sc(=S)n(C)c1NC(=O)c1ccccc1C	i	1.1
O=C(NCc1ccccc1F)C1CCCN1C(=O)NC1CCCCC1 (stereo not given)	i	-0.03
Cc1ccc2c(c1)N(CC(=O)N1CCc3ccccc3C1)C(=O)CO2	i	1.5
COc1cc2[nH]c(=S)n(N(C(C)=O)C(C)=O)c(=O)c2cc1OC	i	-0.61
O=C(NCc1ccc(F)cc1F)c1cc(COc2c(F)cccc2F)on1	i	0.43
COc1ccccc1CN1CCC(n2nccc2NC(=O)CCOc2ccccc2)CC1	i	0.68
O=C1C2CC=C(Cl)CC2C(=O)N1CCc1ccccc1 (stereo not given)	i	-0.32
O=C(COc1ccc(Cl)cc1)NCC(=O)N1CCC2(CC1)NCCc1[nH]cnc12	i	-1.9
CCCNS(=O)(=O)c1ccc(CCC(=O)N2CCC(C)CC2)cc1	i	0.75
CC(=O)CCSc1ncnc2sc(-c3ccccc3)cc12	i	-0.69
COc1ccc(OC)c(N2Cc3ccccc3C2)c1	i	-0.34
C/C(=N\NC(=O)c1ccc(C)cc1C)c1ccc2c(c1)OCO2	i	-0.38
CN(c1ccc(OCC(=O)OCC(=O)Nc2ccccc2)cc1)S(=O)(=O)c1ccc(F)cc1	i	0.55
CCOC(=O)C1(CCCc2ccccc2)CCN(C(=O)CCN2CCCCC2=O)CC1	i	-2.5
CC1=CCC2C(=O)N(c3ccc(S(N)(=O)=O)cc3)C(=O)C2C1 (stereo not given)	i	1.3
O=C(CN1CCN(Cc2cccc(Cl)c2)C1=O)NCc1ccccn1	i	0.47
COc1ccc(C(=O)NCC(=O)OCC(=O)NC2CCCC2)cc1	i	-0.17
O=[N+]([O-])c1ccccc1S(=O)(=O)N1CCN(c2ccccc2)CC1	i	1.3
CCOc1cc(C(c2c(C)[nH][nH]c2=O)c2c(C)[nH][nH]c2=O)cc(Br)c1OC	i	-0.18
Cc1ccc(/C=C2\SC(=S)N(CCCC(=O)Nc3nccs3)C2=O)cc1	i	0.07
CCCC(NC(=O)CNC(=O)C(C)(C)C)C(=O)O (stereo not given)	i	-0.37
CCOc1ccc(C(=O)N2CCN(Cc3ccccc3)CC2)cc1OCC	i	-0.16
CCCNC(=O)CN1CCC(c2nc3ccccc3[nH]2)CC1	i	-0.25
CC1(C)COC2(OC1)C(=O)N(CN1CCOCC1)c1ccccc12	i	-0.06
OC(COCc1ccc(Cl)cc1)CN1CCCCC1 (stereo not given)	i	1.8
O=C(c1cc(-c2ccc(Cl)cc2)nc2ccccc12)N1CCC1	i	1.1
O=C(O)c1ccc(-n2cccn2)c([N+](=O)[O-])c1	i	-1.5
Cc1ccc(S(=O)(=O)Nc2cccc3ncccc23)cc1	i	0.76
O=C(NCc1ccncc1)C(=O)NCC1OCCN1S(=O)(=O)c1ccc(Cl)cc1 (stereo not given)	i	-2.2

Another view of some results above.
molecule | KCNQ2 block | KCNQ2 block baseline
CC(=O)Nc1ccc2c(c1)OCCOCCOc1cc(NC(C)=O)ccc1OCCO2 | i | -0.48
COc1ccc(-c2nc(SCc3ccccc3)n(C(=O)c3ccco3)n2)cc1 | i | -0.55

The listing continues:
SMILES	KCNQ2 block	KCNQ2 block baseline
Cc1cccc(N2CCN(C(=O)c3cc4c(=O)[nH]c5ccccc5c4n3C)CC2)c1C	i	1.6
COc1ccc(C(=O)NNC(=O)c2ccncc2)cc1[N+](=O)[O-]	i	-2.5
C/C(=N\N1CCN(C)CC1)c1ccc(OC(F)F)cc1	i	-2
COc1ccc(/C=N/Nc2ccc([N+](=O)[O-])cc2S(=O)(=O)N2CCN(C)CC2)cc1	i	0.65
FC(F)(F)c1nc2ccccc2n2c(-c3ccc(Cl)cc3Cl)nnc12	i	1.5
Cc1cc(C)cc(-n2c(C)cc(/C=N/NC(=O)c3ccncc3)c2C)c1	i	0.18
O=C(c1cc(Cl)ccc1Cl)N1CCN(Cc2ccccc2)CC1	i	0.16
CCOC(=O)N1CCN(CC(O)COCC2=CCC3CC2C3(C)C)CC1 (stereo not given)	i	-1.9
Cc1ccc(C)n1-c1ccc(C(=O)NN)cc1	i	-0.2
CCc1ccccc1NC(=O)CCN1C(=O)C2CC=CCC2C1=O (stereo not given)	i	0.5
COc1ccc(N(CC(=O)Nc2cccc(SC)c2)S(C)(=O)=O)cc1	i	0.56
N/C(=N\OC(=O)c1ccc2c(c1)OCO2)c1ccc(Cl)cc1	i	0.02
COC(CNC(=O)c1c[nH]c2ccc(S(=O)(=O)N(C)c3ccc(F)cc3)cc2c1=O)OC	i	-0.31
Cc1nccn1Cc1cccc2ccccc12	i	1.1
COc1ccc(-c2nc(C#N)c(NCc3ccccc3Cl)o2)cc1OC	i	-1.2
CCN1CC2CCCC3(C1)C(=O)NC1(CCCCC1)N=C23 (stereo not given)	i	4.1
Fc1ccc(NC(=S)N2CCn3cccc3C2c2cccnc2)cc1 (stereo not given)	i	-1.8
Cc1[nH][nH]c(=O)c1C(c1ccc(-c2ccc(F)cc2)o1)c1c(C)[nH][nH]c1=O	i	-1.3
CCCSc1nnc(-c2cccc(S(=O)(=O)N(C)C)c2)n1-c1cc(OC)ccc1OC	i	-1.3
O=c1c(F)cn(C2CCCO2)c(=O)n1Cc1ccccc1F (stereo not given)	i	1.2
CCn1cc(CN2CCC(C(=O)Nc3ccc(Oc4ccccc4)nc3)CC2)cn1	i	0.64
O=C(C1CCCCC1)N1CCN(S(=O)(=O)c2ccc(Br)cc2)CC1	i	-1.4

Three of the compounds above, bar-delimited:
Compound | KCNQ2 block | KCNQ2 block baseline
CCOc1cc(C(c2c(C)[nH][nH]c2=O)c2c(C)[nH][nH]c2=O)cc(Br)c1OC | i | -0.18
Cc1ccc(/C=C2\SC(=S)N(CCCC(=O)Nc3nccs3)C2=O)cc1 | i | 0.07
CCCC(NC(=O)CNC(=O)C(C)(C)C)C(=O)O (stereo not given) | i | -0.37

Screens deposited in PubChem BioAssay by Johns Hopkins Ion Channel Center.
